# Screens as filed in PubChem BioAssay.
# MARV entry inh – inhibitors of Marburg virus binding or cell entry. Potency, µM (series often up to 37.8 µM), for the others: at the top dose activity change, negative = inhibition, usual class: inhibitors. 300,000 compounds, 1.8% hits. Marburg virus pseudotyped entry inhibition, cell reporter; control for the full effect not named in the record; about a third of the inactives were read at about 46 µM; active = well fitted inhibition curve with a large enough effect; inconclusive = small, poorly fitted or top-dose-only effect, or effect the other way; inactive = flat fitted curve, though single readings scatter; tested in HEK293 cells; about a fifth of its hits are not listed in these tables; note: % is set by controls: 0 for no effect and ±100 for the full control effect; luciferase read-out
# LASV entry inh – blocks Lassa virus binding to or entry into cells | Lassa virus pseudotype entry inhibition, cell reporter; control for the full effect not named in the record | Potency, µM (top dose mostly 37.9 µM), inactives show at the top dose activity change, negative = inhibition, hits mostly inhibitors | 300,000 compounds, 1.2% hits | AID 540256; active means well fitted inhibition curve with a large enough effect; inconclusive means small, poorly fitted or top-dose-only effect, or effect the other way; inactive means flat fitted curve, though single readings scatter; tested in HEK293 cells; note: % is set by controls: 0 for no effect and ±100 for the full control effect; nearly all actives have a fitted effect of over 50% in size; luciferase read-out
# Cruzain noTriton – blocks cruzain activity in detergent-free assay | AID 1476 | Potency, µM, for the others: max response, negative = inhibition, hits mostly inhibitors | P25779 | purified cruzain, Z-FR-AMC fluorescence, no detergent | 200,000 compounds, 2.3% hits;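 note: plate controls were enzyme without inhibitor for no effect and buffer without enzyme for full effect; nearly all actives have a fitted effect of over 40% in size; top concentration of the series not given in the record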
# Target sequence (P25779 123-467 limits assumed): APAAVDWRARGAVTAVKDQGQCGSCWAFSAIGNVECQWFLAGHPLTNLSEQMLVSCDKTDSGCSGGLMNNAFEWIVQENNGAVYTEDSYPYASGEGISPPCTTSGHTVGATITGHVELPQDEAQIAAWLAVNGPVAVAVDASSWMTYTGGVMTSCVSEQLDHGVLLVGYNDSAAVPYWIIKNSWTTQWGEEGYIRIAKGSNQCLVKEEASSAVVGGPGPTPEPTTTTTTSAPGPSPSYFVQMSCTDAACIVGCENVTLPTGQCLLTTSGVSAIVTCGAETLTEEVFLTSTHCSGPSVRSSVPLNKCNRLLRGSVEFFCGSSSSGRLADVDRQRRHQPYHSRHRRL
#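 Purified cruzain at 1.5 nM, pre-incubated 15 min with compound at room temperature in 100 mM sodium acetate pH 5.5, 5 mM DTT, 0.00005% Triton X-100. Reaction started with 2 uM Z-FR-AMC; AMC fluorescence increase over 60 s gives rate.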
# Cruzain Triton – cruzain (T. cruzi) inhibition with detergent | P25779 | purified cruzain, Z-FR-AMC fluorescence, 0.01% Triton | Potency, µM, without a hit: max response, negative = inhibition, most hits filed as inhibitors | 200,000 compounds, 0.43% hits | AID 1478;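 note: plate controls were neutral wells for no effect and buffer without enzyme for full effect; nearly all actives have a fitted effect of over 40% in size; top concentration of the series not given in the record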
#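 Enzyme 1.5 nM, Z-FR-AMC 2 uM, NaOAc 100 mM pH 5.5, DTT 5 mM, Triton X-100 0.01%; 15 min RT compound preincubation; kinetic ex360/em450, 60 s delta.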
# NS1 function inh – inhibitors of influenza NS1 protein function. S. cerevisiae slowed by influenza A NS1, growth recovery by OD600. Potency, µM (series often up to 46.1 µM), for inactives: at the highest dose activity, positive = more growth. 270,000 compounds, 0.4% hits; active means well fitted rising curve with a large enough effect; inconclusive means small, poorly fitted or top-dose-only effect; inactive means no such curve, though single readings can be large or run the other way; note: nearly all actives have a fitted effect of over 50% in size
#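 A cell-based growth assay was used: compounds that relieve NS1-induced slow growth of budding yeast raise OD600. Assay medium was yeast nitrogen base with ammonium sulphate and -URA supplement, pH 6.0, with 2% galactose.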
# SARS PLP yeast – blocks SARS-CoV papain-like protease in a yeast assay. AID 485353. Potency, µM (doses to about 32.9 µM), for the others: at the highest dose activity, positive = growth rescue. S. cerevisiae expressing SARS-CoV PLpro, growth rescue; control for the full effect not named in the record. 330,000 compounds, 0.19% hits; active means well fitted rising curve with a large enough effect; inconclusive means small, poorly fitted or top-dose-only effect; inactive means no such curve, though single readings can be large or run the other way; note: 0% is about no effect; nearly all actives have a fitted effect of over 55% in size; growth read by luminescence after 48 h
# RE007 growth inh – less growth of the S. pombe RE007 Vpr strain; S. pombe RE007 Vpr strain, BacTiter-Glo ATP luminescence, 24 h; control for the full effect not named in the record; Potency, µM (highest dose often 92.2 µM), inactives show top-dose activity change, negative = less growth; 360,000 compounds, 0.21% hits; AID 651644; active = well fitted falling curve with a large enough effect; inconclusive = small, poorly fitted or top-dose-only effect; inactive = no such curve, though single readings can be large or run the other way;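 note: % is set by controls: 0 for no effect and ±100 for the full control effect; nearly all actives have a fitted effect of over 50% in size; the assay follows cell death caused by Vpr and the record does not say whether a fall means rescue or toxicity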
#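 Fission yeast strain RE007, carrying one chromosomally integrated HIV-1 vpr copy, was seeded at OD 0.01 in PMG+AL medium with 23 nL pinned compound. After 24 h at 30 °C and 99% humidity, viability was read by BacTiter-Glo luminescence.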
# StopGo reporter – FMDV 2A StopGo reporter, luciferase signal; Potency, µM (doses to about 57.9 µM), without a hit: top-dose signal change, negative = less light; human cells with a luciferase reporter of 2A StopGo recoding; control for the full effect not named in the record; 410,000 compounds, 1.2% hits; active = well fitted falling curve with a large enough effect; inconclusive = small, poorly fitted or top-dose-only effect; inactive = no such curve, though single readings can be large or run the other way; tested in HEK293T cells; note: % is set by controls: 0 for no effect and ±100 for the full control effect; nearly all actives have a fitted effect of over 45% in size; luciferase light after 4 h
# Active calls of the source: *; ? = inconclusive; nt = not tested or not shown; & = joins results of further samples; [ ] = remark or other dose. Unless noted, calls come from the whole dose curve; as a rule, active = well fitted curve in the direction sought with a large enough effect; inconclusive = small, poorly fitted or top-dose-only effect, or another doubt; inactive = no such curve, though single readings can be large; an effect the other way counts as inactive or inconclusive. Potency is the fitted concentration of half-maximal effect.
# The first five entries (preview)
SMILES,MARV entry inh,LASV entry inh,Cruzain noTriton,Cruzain Triton,NS1 function inh,SARS PLP yeast,RE007 growth inh,StopGo reporter
CCCOc1ccc([C@@H]2C3CN(C(=O)OCC)CC=C3C(C#N)=C(N)C2(C#N)C#N)cc1OC (some centres not stated),0%&-19%,10µM*,?,1.7%,-39%,-5%,-3%,0%
O=C(OCC(=O)N1CCN(S(=O)(=O)c2ccc(Cl)cc2)CC1)c1cc(Br)ccc1O,-8%,26%[46.1 µM],nt,nt,nt,-6%,?,-9%
CCOCCCNC(=O)c1cn(C)c2ccc(S(=O)(=O)N3CCCC3)cc2c1=O,nt,nt,nt,nt,5%,1%,-7%,5%
COc1ccc(N2CCN(S(=O)(=O)CCNC(=O)C34CC5CC(CC(C5)C3)C4)CC2)cc1,nt,nt,nt,nt,-6%,-8%,1%,?
Cc1cccc(NC(=O)C2CCCN2C(=O)Oc2ccccc2)c1 (configuration not stated),?,-3%,7%,4.0%,-5%,8%,1%,nt

# All compounds of this part, previewed entries included:
SMILES,MARV entry inh,LASV entry inh,Cruzain noTriton,Cruzain Triton,NS1 function inh,SARS PLP yeast,RE007 growth inh,StopGo reporter
CCCOc1ccc([C@@H]2C3CN(C(=O)OCC)CC=C3C(C#N)=C(N)C2(C#N)C#N)cc1OC (some centres not stated),0%&-19%,10µM*,?,1.7%,-39%,-5%,-3%,0%
O=C(OCC(=O)N1CCN(S(=O)(=O)c2ccc(Cl)cc2)CC1)c1cc(Br)ccc1O,-8%,26%[46.1 µM],nt,nt,nt,-6%,?,-9%
CCOCCCNC(=O)c1cn(C)c2ccc(S(=O)(=O)N3CCCC3)cc2c1=O,nt,nt,nt,nt,5%,1%,-7%,5%
COc1ccc(N2CCN(S(=O)(=O)CCNC(=O)C34CC5CC(CC(C5)C3)C4)CC2)cc1,nt,nt,nt,nt,-6%,-8%,1%,?
Cc1cccc(NC(=O)C2CCCN2C(=O)Oc2ccccc2)c1 (configuration not stated),?,-3%,7%,4.0%,-5%,8%,1%,nt
C1=CC(c2cc3ccccc3o2)OC(CCc2ccccc2)C1 (configuration not stated),nt,nt,nt,nt,-2%,-4%,0%,-20%
OC(c1ccccc1)c1nc2ccccc2n1Cc1c(F)cccc1Cl (configuration not stated),2%[46.1 µM],8%[46.1 µM],3%,-6.8%,nt,nt,nt,-19%
COc1ccc(C)cc1NC(=O)C1CC(=O)N(CCc2ccc(F)cc2)C1 (configuration not stated),-7%[46.1 µM],-2%,nt,nt,nt,nt,4%,5%
COc1ccc(OC)c(NC(=S)NN2CCN(C)CC2)c1,0%[46.1 µM],3%,-13%,-0.3%,5%,9%,3%,-1%
O=C(COc1ccccc1)Nc1cccc(-c2nnc(-c3ccccc3)o2)c1,19%[46.1 µM],-22%,5%,-2.6%,-51%,0%,-3%,-8%
COc1ccc(-c2nnn(CC(=O)NCc3cccs3)n2)cc1OC,4%,-20%,-4%,7.0%,?,4%,9%,-24%
COc1ccccc1CN1COc2ccc3c(C)cc(=O)oc3c2C1,nt,12%[46.1 µM],?,-8.2%,nt,nt,nt,-8%
Cc1ccccc1Nc1nc(-c2cccnc2)nc2ccccc12,nt,nt,nt,nt,-8%,-5%,-10%,?
CCOc1ccc2nc(NC(=O)c3cccn(Cc4ccccc4)c3=O)sc2c1,nt,18%[46.1 µM],-25%,0.0%,nt,nt,nt,-11%
COc1ccc2nc(/N=C(\N)NC(=O)N3c4ccccc4Sc4ccccc43)nc(C)c2c1,0%,13%,?,0.7%,?,-2%,-22%,-3%
CCOC(=O)c1scc(-c2ccccc2)c1S(=O)(=O)N1CCN(c2ccc(Cl)cc2)CC1,nt,-13%[46.1 µM],?,-0.8%,nt,nt,nt,-8%
CCSc1nnc(NC(=O)CSc2nc3c(c(=O)n2C)SC(C)C3)s1 (configuration not stated),-19%,14%,21%,-1.0%,3%,2%,5%,nt
Cc1nn(-c2ccccc2)c2c1C1(C(=O)N3c4c(cccc41)C(C)CC3(C)C)C(C#N)=C(N)O2 (configuration not stated),?,-1%,8%,-2.7%,6%,-47%,-25%,?
CC(C)COc1cccc(C(=O)Nc2ccc(S(=O)(=O)N3CCOCC3)cc2)c1,-3%,?,?,-1.6%,3%,2%,6%,nt
CCCS(=O)(=O)c1c(S(=O)(=O)CCC)c2cc(CC)ccn2c1C(=O)OC,-29%,-4%,?,-1.9%,-43%,-8%,-9%,-18%
CC(=O)c1cccc(OCc2cc(C(=O)NC3CCN(Cc4ccccc4)CC3)no2)c1,nt,nt,nt,nt,-7%,1%,1%,-29%
Cc1c(C(=O)Nc2nnc(C(F)(F)F)s2)oc2ccccc12,-26%,60%[14.3 µM],8%,-1.5%,-47%,-1%,-6%,36%[activator]
CCOC(=O)C1=C(C)N(CCCCCC(=O)O)C(=O)NC1c1ccc(Br)cc1 (configuration not stated),nt,nt,nt,nt,-3%,2%,-7%,-11%
CCn1c(C(=O)O)c(CC(=O)N(C)c2ccc(OC)cc2OC)c2ccccc21,nt,nt,nt,nt,8%,1%,-20%,-24%
COc1ccc(OC)c(C2C(C(=O)c3cccs3)=C(O)C(=O)N2CCN(C)C)c1 (configuration not stated),15%,8%,-12%,1.8%,0%,-6%,-9%,31%[activator]

# Next section, starting with the last three of the part before.
SMILES,MARV entry inh,LASV entry inh,Cruzain noTriton,Cruzain Triton,NS1 function inh,SARS PLP yeast,RE007 growth inh,StopGo reporter
CCOC(=O)C1=C(C)N(CCCCCC(=O)O)C(=O)NC1c1ccc(Br)cc1 (configuration not stated),nt,nt,nt,nt,-3%,2%,-7%,-11%
CCn1c(C(=O)O)c(CC(=O)N(C)c2ccc(OC)cc2OC)c2ccccc21,nt,nt,nt,nt,8%,1%,-20%,-24%
COc1ccc(OC)c(C2C(C(=O)c3cccs3)=C(O)C(=O)N2CCN(C)C)c1 (configuration not stated),15%,8%,-12%,1.8%,0%,-6%,-9%,31%[activator]
Cc1ccc(CNC(=O)C2c3ccccc3C(=O)N(C)C2c2c[nH]c3ccccc23)o1 (configuration not stated),?,?,3%,2.9%,-13%,nt,-12%,-25%
CCCCn1nc2cc(C(=O)NCc3ccccc3OC)ccc2c1OCC,nt,nt,2%,-8.9%,-6%,-4%,17%,8%
CCn1c(=NC(=O)c2cccc(N3C(=O)CCC3=O)c2)sc2c(OC)ccc(OC)c21,nt,nt,nt,nt,-2%,1%,1%,-14%
CCOc1ccccc1N(CC(=O)Nc1cccc2ccccc12)S(C)(=O)=O,nt,nt,nt,nt,20%,-3%,13%,5%
O=C(Nc1nc(-c2ccc(Cl)cc2)cs1)C1=COCCO1,21%,-26%,nt,nt,nt,-13%,?,15%
O=C(NC(=S)NCc1ccccc1)c1ccc(Br)cc1,8%[46.1 µM],10%,nt,nt,nt,nt,6%,21%
CC(C)c1nn2c(=O)cc(COc3cccc(NC(=O)c4ccco4)c3)nc2s1,15%[46.1 µM],9%[46.1 µM],nt,nt,10%,-6%,6%,16%
Cc1ccc(N2C(=O)CC(n3ccnc3)C2=O)cc1C (configuration not stated),6%,2%,0%,5.3%,3%,-4%,0%,-2%
COc1ccc(CNC(=O)C(c2ccncc2)N(C(=O)Cc2cccs2)c2cccnc2)cc1 (configuration not stated),-5%[46.1 µM],0%,nt,nt,-9%,-1%,9%,-26%
O=C(CCC(=O)N1CCSc2ccccc21)NCc1ccccc1,nt,nt,nt,nt,-2%,-2%,4%,-20%
CC1=CCC2C(=O)N(c3ccc(C)cc3)C(=O)C2C1 (configuration not stated),1%,-5%,6%,2.1%,7%,-5%,0%,nt
CCOC(=O)C(=O)Nc1nnc(COc2ccccc2)s1,-3%[46.1 µM],16%[46.1 µM],nt,nt,-7%,1%,-4%,2%
N/C(=N\OC(=O)COc1ccc(Br)cc1)c1cccnc1,4%,16%,8%,-3.1%,-12%,0%,4%,16%
CC(NC(=O)c1cccs1)c1ccc(Br)cc1 (configuration not stated),-4%,2%,nt,nt,nt,nt,4%,-17%
Cc1nn(C)c(=S)[nH]c1=S,20%[46.1 µM],16%[46.1 µM],nt,nt,nt,nt,?,-12%
COc1ccc(C2c3ccc(O)cc3Oc3ncn4nc(-c5cccnc5)nc4c32)cc1OC (configuration not stated),?,?,nt,nt,7%,1%,4%,?
CCO[C@H]1OC(C(=O)N2CCOCC2)=C[C@@H](c2ccc3c(c2)OCO3)[C@@H]1CCCO,nt,nt,nt,nt,3%,-1%,-12%,-21%
COc1ccc(NC(=O)CSCC(=O)Nc2ccccc2N2CCCC2)cc1,9%,-6%,nt,nt,nt,-11%,4%,-17%
CC(C)CNC(=O)C(=O)NN=C1CCCCCC1,0%,0%,-7%,-1.6%,-8%,-34%,3%,21%
CN=C1SC(CC(=O)Nc2ccc(F)cc2F)C(=O)N1/N=C/c1ccc(OC(F)F)c(OC)c1 (configuration not stated),2%[46.1 µM],-17%,nt,nt,6%,-1%,10%,-30%
COc1ccc(/C=N/n2c(C)nc3sc(C)c(C)c3c2=O)cc1OC,?,10%[46.1 µM],nt,nt,5%,1%,1%,-10%
O=[N+]([O-])c1ccc2oc(C3CCCCC3)nc2c1,9%,?,nt,nt,4%,0%,0%,63%[activator]
Cc1cccn2c(=O)c3cc(C(=O)NCC(C)C)sc3nc12,?,?,6%,-1.5%,1%,1%,-1%,28%&5%
COC(=O)c1ccc(Oc2nc3c(c(=O)n(C)c(=O)n3C)n2CCC(C)C)cc1,-17%,?,?,-1.0%,-8%,1%,-19%,?
CN(Cc1ccc(Cl)s1)C(=O)CCl,?,11µM*,nt,nt,nt,-4%,2%,11µM*
